Compound activity (PubChem BioAssay)
N370S GC: inhibits or activates N370S mutant glucocerebrosidase; P04062; N370S GC spleen homogenate, 4MU-glucoside fluorescence; 0.092% of 330,000 active; Potency, µM (highest dose often 59.4 µM), without a hit: top-dose activity change, negative = inhibition, most hits filed as inhibitors;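 further: 0% = full enzyme activity and -100% = no enzyme basal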
GCN5L2 inh: inhibitors of human GCN5L2 histone acetyltransferase; Q92830; GCN5L2 HAT assay, ThioGlo1 CoA-SH fluorescence; Potency, µM (doses to about 58.9 µM), for inactives: at the top dose activity change, negative = inhibition, hits mostly inhibitors; 0.21% of 390,000 active; AID 504327
Target sequence (Q92830 whole entry, looked up): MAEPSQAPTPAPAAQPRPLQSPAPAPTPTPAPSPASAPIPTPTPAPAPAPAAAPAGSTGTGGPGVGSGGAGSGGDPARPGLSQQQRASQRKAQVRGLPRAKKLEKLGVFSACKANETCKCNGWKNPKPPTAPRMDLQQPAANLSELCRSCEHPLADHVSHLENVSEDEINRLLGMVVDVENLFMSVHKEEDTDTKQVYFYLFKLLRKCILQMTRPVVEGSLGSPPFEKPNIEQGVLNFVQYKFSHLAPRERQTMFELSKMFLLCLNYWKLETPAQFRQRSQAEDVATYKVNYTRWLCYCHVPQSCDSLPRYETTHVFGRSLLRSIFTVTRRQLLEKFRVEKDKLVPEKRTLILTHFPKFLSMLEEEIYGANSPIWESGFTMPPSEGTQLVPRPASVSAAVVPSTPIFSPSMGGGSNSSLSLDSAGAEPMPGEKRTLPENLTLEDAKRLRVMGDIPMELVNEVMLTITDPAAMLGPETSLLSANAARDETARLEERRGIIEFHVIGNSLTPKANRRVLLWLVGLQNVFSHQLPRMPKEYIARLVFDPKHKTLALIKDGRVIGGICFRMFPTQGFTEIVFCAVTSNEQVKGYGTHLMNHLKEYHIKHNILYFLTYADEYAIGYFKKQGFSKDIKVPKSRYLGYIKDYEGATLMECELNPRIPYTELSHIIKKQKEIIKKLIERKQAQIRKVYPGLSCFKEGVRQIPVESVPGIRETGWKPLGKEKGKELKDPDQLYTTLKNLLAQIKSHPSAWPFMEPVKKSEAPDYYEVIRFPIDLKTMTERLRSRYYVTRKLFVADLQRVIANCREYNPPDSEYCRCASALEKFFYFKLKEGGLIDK
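Free CoA generated was detected with ThioGlo1 (50uM) fluorescence at Ex340nm/Em540nm, read immediately and after 20 min at room temperature. Enzyme, 20 nM in HEPES pH 7.5 buffer, saw compounds 15 min before adding 75uM H3(1-25) peptide and 70uM acetyl-CoA.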
An asterisk follows results filed as active; ? = inconclusive; nt = no result given; & = joins results of further samples. The call rests on the fitted dose curve; in most records, active means well fitted curve in the direction sought with a large enough effect; inconclusive means small, poorly fitted or top-dose-only effect, or another doubt; inactive means no such curve, though single readings can be large; an effect the other way counts as inactive or inconclusive. Unless noted, on the % scale 0 is the no-effect control and ±100 the full control effect; potency means the concentration at half of the fitted maximal effect. Not all compounds are listed, and most or all hits are left out here.

SMILES	N370S GC	GCN5L2 inh
Cc1ccc(/C=C/C(=O)OC(C)C(=O)Nc2ccc(Cl)cn2)o1 (stereo not given)	0%	-1%
O=C(NCc1ccco1)N1c2ccccc2Sc2ccccc21	11%	-2%
CCN(CC)CCSc1nnc2c3cc(F)ccc3n(CC)c2n1	nt	-12%
N#CC1(NC(=O)CN2C(=O)NC(Cc3c[nH]c4ccccc34)C2=O)CCCCC1 (stereo not given)	nt	-5%
COc1cc(CCN2C(=O)c3cccc4cccc(c34)C2=O)c(S(=O)(=O)N2CCC(C)CC2)cc1OC	4%	-7%
O=C1C2CCCN2C(=O)N1CCCN1CCN(c2cccc(Cl)c2)CC1 (stereo not given)	8%	-1%
CCn1c(=O)cc(N2CCN(C(=O)c3ccco3)CC2)[nH]c1=O	-2%	-9%
CC(C)C(=O)C1=Cc2cc([N+](=O)[O-])ccc2OC1N1CCOCC1 (stereo not given)	-7%	-5%
O=C(CCCOc1ccccc1)Nc1ccc2c(c1)OCCO2	4%	-4%
O=C(NCC(=O)N(c1ccccc1)C(C(=O)NC1CCCCC1)c1ccncc1)c1ccco1 (stereo not given)	-2%	19%
CC1Oc2ccccc2N(CC(=O)N2CCc3ccccc32)C1=O (stereo not given)	-3%	-1%
CC1CCC(NC(=O)C2CCN(S(=O)(=O)c3ccc4nc5c(c(C(=O)O)c4c3)CC(C)CC5)CC2)CC1 (stereo not given)	-6%	-7%
O=S1(=O)CC(O)C(NCc2cccnc2)C1 (stereo not given)	3%	-10%
CSc1ncnc2c1ccn2CC(=O)Nc1ccc(C)c(C)c1	nt	0%
Cc1cc2cc(CNC(=O)CCC(=O)O)ccc2[nH]1	6%	3%

Random excerpt: six records from the list, in no set order.
SMILES	N370S GC	GCN5L2 inh
Cc1cc2cc(CNC(=O)CCC(=O)O)ccc2[nH]1	6%	3%
CSc1ncnc2c1ccn2CC(=O)Nc1ccc(C)c(C)c1	nt	0%
Cc1ccc(/C=C/C(=O)OC(C)C(=O)Nc2ccc(Cl)cn2)o1 (stereo not given)	0%	-1%
O=S1(=O)CC(O)C(NCc2cccnc2)C1 (stereo not given)	3%	-10%
O=C(CCCOc1ccccc1)Nc1ccc2c(c1)OCCO2	4%	-4%
CC(C)C(=O)C1=Cc2cc([N+](=O)[O-])ccc2OC1N1CCOCC1 (stereo not given)	-7%	-5%

Carrying on:
SMILES	N370S GC	GCN5L2 inh
O=C(CCn1c(=S)[nH]c2ccccc2c1=O)Nc1cccc(Cl)c1	0%	0%
COc1ccc(-c2coc3cc(OC(C)=O)c(OC)cc3c2=O)cc1	nt	-2%
O=C(CC1Oc2ccccc2NC1=O)NCc1ccccc1 (stereo not given)	4%	-4%
CCOC(=O)C(=O)/C(=C\N(C)C)c1onc(-c2c(F)cccc2Cl)c1C(=O)OC	1%	-2%
Cc1cc([N+](=O)[O-])nn1CCCC(=O)Nc1cc(Oc2ccc(F)cc2)cc([N+](=O)[O-])c1	26%	-7%
CCCS(=O)(=O)N1CCN(CC2CC=CCC2)CC1 (stereo not given)	-14%	-8%
CCN(CC)S(=O)(=O)c1ccc(N/N=C/c2ccc(O)cc2)nc1	-19%	0%
COc1ccc(Nc2ccc3c(c2)=NC2(CCCCC2)[N+]=3[O-])cc1	-12%	0%
CN(c1ncc(C(F)(F)F)cc1Cl)N1C(=O)c2cccc([N+](=O)[O-])c2C1=O	8%	-8%
O=S(=O)(c1ccc(Cl)c(C(F)(F)F)c1)N1CCN(CC(O)COc2ccccc2F)CC1 (stereo not given)	-6%	-3%
COCCn1nnnc1CN1CCN(C(=O)c2ccco2)CC1	-1%	1%
CCOC(=O)C(C(=O)OCC)C(C(=O)OCC)N1CCOCC1 (stereo not given)	-8%	-9%
O=C(NCCCN1CCN(c2ccc(F)cc2)CC1)Nc1ccc(Cl)cc1	nt	-9%
Cc1cccc(N(CC(=O)N2CCCC2)S(C)(=O)=O)c1	-10%	0%
Cc1nc(NC(=O)c2cnccn2)ccc1Br	-4%	-29%
CCCNC(=O)C(Cc1ccc(C(F)(F)F)cc1)NC(=O)c1ccc2ccccc2n1 (stereo not given)	nt	1%
COc1ccc(N(C(=O)CNC(=O)c2ccco2)C(C(=O)NCC2CCCO2)c2ccc(OC)c(OC)c2)cc1 (stereo not given)	2%	-8%
Fc1ccc(-c2nnc(SCc3cccnc3)o2)cc1	-10%	-4%
Cc1ccc(C)c(NC(=O)Cn2ccn(-c3ccc(F)cc3)c(=O)c2=O)c1	nt	-10%
CCn1c(C(c2ccccc2)c2ccccc2)n[nH]c1=S	13%	-8%
COc1ccc(NC(=O)c2cccc(NC(=O)c3ccccc3)c2)cc1	-4%	-2%
CCOc1ccc(S(=O)(=O)N2CCC(C(=O)NCc3ccncc3)CC2)cc1C	-12%	-4%
CC(C)CN=C(NS(=O)(=O)c1ccccc1)C(Cl)(Cl)Cl	4%	-2%
O=C(CSc1nnc(C2COc3ccccc3O2)o1)N1CCCCC1 (stereo not given)	-9%	-2%
c1ccc(-c2cc(N3CCOCC3)nc(-c3ccccc3)n2)cc1	2%	-3%
Cc1cccc(N2C(=O)CC(c3ccc(F)cc3)C3=C2COC3=O)c1 (stereo not given)	-10%	-4%&-1%
C=CCNC(=S)NCc1ccccc1OC	-3%	0%
CCn1c(=O)c2cc(C(=O)Nc3ccccc3OC)sc2c2ccccc21	1%	22%
Cc1ccn(CCNC(=O)C2CCC(=O)N(CCc3ccc(Cl)cc3)C2)n1 (stereo not given)	1%	-1%
COc1ccc(-n2cc(CNCCCn3ccnc3)c(-c3ccccc3Cl)n2)cc1	-22%	-5%
CCCCc1ccc(NC(=S)NN2CCOCC2)cc1	14%	3%
CCOC(=O)c1cc(C#N)c(SC(C)C(=O)NC2CCCCC2)nc1C (stereo not given)	nt	-5%
Cn1nccc1C(=O)NC1CCCc2c1cnn2-c1cc(F)cc(F)c1 (stereo not given)	-6%	-17%
CC1(C)CC2CC(C)(CN2C(=O)COC(=O)c2cccnc2Cl)C1 (stereo not given)	nt	-4%
CC(C)(C)NC(=O)NC(=O)CSc1ccc(S(=O)(=O)N2CCCCC2)cn1	nt	0%
O=C(Nc1cccc(-c2cn3ccsc3n2)c1)c1ccccc1	-9%	-18%
C[C@@]12CC(=O)NC1N(C(=O)c1cccc(C(F)(F)F)c1)C(c1ccccc1O)C2 (stereo not given in full)	1%	-1%
CC(=O)Nc1ccc(OCC(O)Cn2nc(C)c(C)c2C)cc1 (stereo not given)	-4%	-10%
C/C(Cn1nnc([N+](=O)[O-])n1)=N\NC(=O)c1ccccc1Cl	0%	-2%
CCCN(CCC)CCCNC(=O)C1CCCN(Cc2nc(-c3ccc(Cl)cc3)oc2C)C1 (stereo not given)	nt	0%
NS(=O)(=O)c1ccc(CNC(=S)Nc2ccc(Cl)c(Cl)c2)cc1	1%	-4%
Cc1ccc(-n2c(O)c(C=NCc3ccccn3)c3ccccc3c2=O)cc1	7%	-5%
COc1cc(NC(=O)CCc2nc(-c3cccs3)no2)cc(OC)c1OC	-7%	-7%&-6%
Oc1ccc(Br)cc1CNn1cnnc1	-8%	-4%
CCOc1ccc(-c2n[nH]c(C)c2Oc2ccc(OC)cc2)c(O)c1	?	-25%
Cc1ccc2[nH]c(=O)c(-c3nc4ccccn4c3NCc3ccco3)cc2c1	0%	-3%
CCOc1ccc(NC(=O)CC2C(=O)N(c3ccc(OC)cc3)C(=O)N2CCc2cccs2)cc1 (stereo not given)	-6%	-8%
COc1ccc(CC(=O)OCC(=O)NCCc2ccccc2)cc1OC	-4%	-8%
CCC(=O)c1cc2c(cc1NC(=O)c1cccs1)OCCO2	2%	-3%
COC(=O)Nc1snnc1C	-4%	3%
Cc1cc(Cl)ccc1Nc1ncccc1C(N)=O	-27%	-5%
COc1ccc(C2=Nn3c(C)nnc3SC2)cc1	-2%	0%
COc1cc(NC(=O)[C@@H]2CCCN2S(=O)(=O)c2cccc3cccnc23)cc(OC)c1OC	-17%	-3%
COc1cc(C)ccc1OCCOCCOc1cccc2ccc(C)nc12	-10%	-8%
Cc1ccc(-c2cn3c(n2)CCCC3)cc1	5%	-4%
Cc1cccc(NC(=O)NCC(F)(F)F)n1	7%	0%
O=C(Cc1ccccc1)Nc1ccc2oc(-c3cccnc3)nc2c1	0%	-5%
CC(C(=O)O)C1SC(=O)NC1=O (stereo not given)	-6%	1%
Cc1cnc(C(=O)OCC(=O)N2CCN(C(=O)c3ccco3)CC2)cn1	14%	-3%
Cc1ccc(C(=O)CSc2nc(N)cc(=O)[nH]2)cc1	5%	0%

6 compounds from above, ordered by length of the SMILES, descending.
SMILES	N370S GC	GCN5L2 inh
Cc1ccc2[nH]c(=O)c(-c3nc4ccccn4c3NCc3ccco3)cc2c1	0%	-3%
Cc1cnc(C(=O)OCC(=O)N2CCN(C(=O)c3ccco3)CC2)cn1	14%	-3%
COc1cc(C)ccc1OCCOCCOc1cccc2ccc(C)nc12	-10%	-8%
Cc1ccc(C(=O)CSc2nc(N)cc(=O)[nH]2)cc1	5%	0%
COc1ccc(C2=Nn3c(C)nnc3SC2)cc1	-2%	0%
CC(C(=O)O)C1SC(=O)NC1=O (stereo not given)	-6%	1%

(listing goes on)
SMILES	N370S GC	GCN5L2 inh
O=C1C2C3C=CC(C3)C2C(=O)N1Cc1ccc(CN2C(=O)C3C4C=CC(C4)C3C2=O)cc1 (stereo not given)	7%	-6%
O=C(c1ccccc1)c1c2c(cc3sc4ccccc4[n+]13)-c1cccc3cccc-2c13	-17%	-9%
Cn1c(N)c(C(=O)CSc2nc(C3CC3)n(-c3ccccc3)n2)c(=O)[nH]c1=O	nt	-7%
COc1ccc(/C=N/NC(=S)Nc2ccccc2[N+](=O)[O-])cc1O	7%	-6%
CCOc1ccc(C(=O)Nc2ccc(NC(=S)NC(=O)CC)cc2)cc1Cl	2%	3%
COc1ccccc1NC(=O)CCn1c(=O)c2cccn2c2ccccc21	6%	3%
Cc1nn(C(C)(C)C)c(OC(=O)c2cccs2)c1S(=O)(=O)c1ccccc1	22%	-8%
CCN(CCn1cccn1)C(=O)CC1C(=O)NCCN1Cc1ccc(OC)c(OC)c1 (stereo not given)	-3%	-2%
Cc1cccc(C)c1NC(=O)N1CCCCCCC1	-11%	-2%
Cc1nc(/C(N)=N/OC(=O)Cc2ccccc2)no1	-8%	-6%
Cc1ccc(CN2CCN(/N=C/c3ccc(C(=O)O)cc3)CC2)c(C)c1	-1%	1%
Cc1cccn2c(=O)c(/C=N/O)c(N3CCCC3)nc12	14%	-13%
CCC(C)c1cc(S(=O)(=O)N2CCOCC2)ccc1OC (stereo not given)	2%	-5%
CC(C)CCNC(=O)C(c1cccs1)N(CC1CCCO1)C(=O)Cn1nnc2ccccc21 (stereo not given)	6%	-2%
OC(COCc1cccs1)CN1CCCCCC1 (stereo not given)	3%	-5%
COc1ccccc1N1CCN(C2CCCN(C(=O)c3ccoc3C)C2)CC1 (stereo not given)	2%	-13%
COc1cccc(N2CC(NC(=O)/C=C\c3ccc4c(c3)OCO4)CC2=O)c1 (stereo not given)	nt	-1%
Nc1ncnc2c1ncn2[C@@H]1O[C@H](CNS(=O)(=O)c2cc3ccccc3s2)[C@@H](O)[C@H]1O	nt	0%
C[C@H](CO)N1C[C@H](C)[C@@H](CN(C)C(=O)Nc2ccccc2)Oc2ccc(NC(=O)C3CCCCC3)cc2C1=O	nt	2%
Cc1cccc(OC(C)C(=O)NCc2ccc(S(N)(=O)=O)cc2)c1 (stereo not given)	3%	1%
O=S(=O)(c1ccc(NC(=S)NCCC(c2ccccc2)c2ccccc2)cc1)N1CCOCC1	1%	-8%
O=C(NC1CCCCCC1)C1CCN(S(=O)(=O)N2CCC3(CC2)OCCO3)CC1	11%	-11%
CC(Sc1nncn1C)C(=O)NCc1ccc2c(c1)OCO2 (stereo not given)	-4%	-10%
Cc1ccc(NC(=O)CCCN2C(=O)c3cccc4cccc(c34)C2=O)cc1	14%	14%
COC(=O)/C=c1/s/c(=C(/C#N)C(=O)N2CCCCC2)n(-c2ccccc2)c1=O	4%	2%
O=C(Cc1ccccc1)Nc1ncccn1	1%	1%
Cc1ccccc1-n1c(C)nnc1SCC(=O)N(C)C1CCS(=O)(=O)C1 (stereo not given)	-8%	-1%
Cn1c(=O)n(C)c2cc(NC(=O)c3cc4ccccc4o3)ccc21	2%	?
Cc1ccc(-c2nn3c(C)nnc3c3ccccc23)cc1S(=O)(=O)NCCN1CCOCC1	-23%	-12%
COc1ccc(-c2[nH]c3ccccc3c2SCCN)cc1	-17%	-2%
O=C(NCC1CCCO1)c1cccc(N2C(=O)C3C4C=CC(C4)C3C2=O)c1 (stereo not given)	10%	-2%
COc1cc(C2NC(=O)NC(C)=C2C(=O)OCC2CCCO2)cc(OC)c1OC (stereo not given)	2%	-4%
CC1(C)CC(=O)c2cc(C(=O)N3CCN(CCO)CC3)c(=O)n(-c3ccc(Cl)cc3)c2C1	2%	-4%
Cc1nc2ccccc2c(=O)n1/N=C/c1cn(-c2ccccc2)nc1-c1cccs1	3%	-2%
CCN(CC)c1ccc(NC(=O)CSc2nc3nc(C)cc(C)c3c(=O)[nH]2)cc1	-1%	-7%
CCOC(=O)C1(Cc2cccc(F)c2)CCN(C(=O)Cc2cccnc2)CC1	-2%	-14%
